# BJeLR lethal: BJeLR cell viability loss | BJeLR (HRASV12) viability, CellTiter-Glo ATP luminescence, 48 h; reference of the scale not given here | AID 1554 | inhibition, % (concentration not given with the values) | 0.17% of 300,000 active;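 active = replicate mean above 50%; inconclusive = above 50% but judged a plate artefact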;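 also: 50 nL library stock added to about 25 µL; numbers are from one replicate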
# PrP 5UTR inh: inhibition of PrP 5' UTR reporter expression | AID 488862 | 0.35% of 340,000 active | inhibition, % (concentration not given with the values) | cell-based PrP 5' UTR mRNA reporter, plate reader;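 active = every replicate at 50% or more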;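 also: 0 = median of the neutral control wells; tested in H4 reporter cells; numbers are from one replicate; inactives centre near -14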
# Autofluor counter: counter-screen for toxin protease inhibitors: compound fluorescence. compound autofluorescence counterscreen, microsphere flow cytometry; active compounds read high. fluorescence intensity (concentration not given with the values). 3.1% of 360,000 active;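 active = at least 3 SD above the mean of all compounds, about 16000 in these data; inconclusive = too few beads counted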;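 also: 100 nL of 1 mM stock went into each well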
# ugtP null kill: kills S. aureus RN4220 lacking UgtP. AID 1259309. S. aureus RN4220 ugtP deletion, OD600 growth, 16 h; some inactives read as strong as hits. 0.54% of 330,000 active. growth inhibition, % (concentration not given with the values);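 active = z-score under -3 and OD600 up to 0.15 on both plates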;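 also: plate controls were untreated wells for no effect and antibiotic for full effect; wells of about 80 µL received 100 nL stock; the first replicate is given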
# Sa RN4220 lethal: kills Staphylococcus aureus RN4220; inhibition, % (test concentration not listed); S. aureus RN4220 growth, OD600, 16 h; 0.33% of 330,000 active;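 active = z-score of -3 or lower and OD600 up to 0.18 on both plates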;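 also: plate controls were untreated cells for no effect and reference antibiotic for full effect; stock transfer was 100 nL into about 80 µL; one replicate is shown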
# Mtb hypoxia inh: Mtb hypoxia fluorescent reporter inhibition | M. tuberculosis hypoxia-regulated fluorescent reporter, fluorescence | fluorescence inhibition, % (concentration not given with the values) | 0.1% of 300,000 active | AID 1159583;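 active = 35 to 45% if threefold the growth effect, above 45% if 1.5-fold the growth effect; inactive = the rest, general growth blockers included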;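 also: wells of about 50 µL received 100 nL stock; 0% = vehicle wells and 100% = reference inhibitor wells; whole bacteria with a GFP reporter of the hypoxia response; strong numbers were not always called active; many hits fall short of the cut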
# Mtb hypoxia inh growth: also measured in Mtb hypoxia inh; calls as there; growth inhibition, %; measured here: M. tuberculosis growth (absorbance);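 0% = vehicle and 100% = reference antibiotic; read after six days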
# * hit, by the source's call; ? = inconclusive; · = not tested or not shown. Compounds as they come; any-hit rate near 4%.
no.	canonical_smiles	Sa RN4220 lethal	BJeLR lethal	ugtP null kill	Autofluor counter
1	Nc1nc(CCl)nc(Nc2ccc3ccccc3c2)n1	11	114*	-9	3669
2	Cc1cc(C)nc(/N=C(\N)C2=C(O)CC(C)(C)CC2=O)n1	·	-5	·	21038*
3	CC1(C)CC(=O)C=C(NCc2ccc(Cl)c(Cl)c2)C1	4.5	-3	-2	9194
4	CC(C)Cn1c(N)c(C(=O)COC(=O)c2cc3ccccc3cc2O)c(=O)n(C)c1=O	7.7	·	-8	3530
5	CCc1cc2cc3c(cc2nc1SCC(=O)OC(C)C)OCO3	6.2	1	59	3520
6	COc1ccc(Nc2nnc(-c3ccncc3)s2)cc1Cl	2.9	4	-3	3563
7	O=[N+]([O-])c1ccc(N2CCCCC2)c2ncccc12	8.7	1	3	4631
8	CCOc1ccc2oc(-c3ccccc3)c(C(N)=O)c2c1	0.1	-10	8	3757
9	CC(C)C1Oc2ccccc2N(CC(=O)N(Cc2ccccn2)CC2CCCO2)C1=O (stereo unspecified)	0.0	-3	2	10509
10	CCOc1cc(/C=C2\SC(=O)N(c3ccc(O)cc3)C2=O)ccc1O	5.7	-8	7	5366

no.	Mtb hypoxia inh growth	PrP 5UTR inh	Mtb hypoxia inh
1	28	-60	19
2	·	-32	·
3	9	-27	6
4	-14	-6	-1
5	-3	-16	9
6	-7	-2	-14
7	-7	-34	-1
8	9	-20	5
9	9	-15	7
10	-10	-17	-4

# More entries.
no.	canonical_smiles	Sa RN4220 lethal	BJeLR lethal	ugtP null kill	Autofluor counter
11	Cc1ccc(N=C(N)N=C(N)N)c(C)c1	-0.9	-6	5	4018
12	CC(=O)N1C(O)CC(C)N1c1ccccc1 (stereo unspecified)	4.1	-3	10	8524
13	Cc1ccn2c(=O)nc(SCC(=O)OCc3ccccc3)nc2c1	4.5	-7	-5	?
14	Cn1c(=O)c2c(nc(CN3CCN(CCO)CC3)n2Cc2cccc3ccccc23)n(C)c1=O	4.8	-4	-5	10475
15	Cc1cccc(NC(=S)N/N=C/c2cccc(O)c2)c1C	·	42	·	3865
16	COc1ccc(C(=O)ON=C(C)c2nccs2)cc1	3.7	·	-5	3781
17	Cc1cccc(/C=C2/Sc3ccc(C(=O)NCCN4CCCC4)cc3NC2=O)c1	-4.5	-2	-19	6359
18	Cn1c(O)c(/C=C2\C=c3ccccc3=NC2=O)c(=O)n(C)c1=O	4.2	2	9	3593
19	COC(=O)c1c(-c2ccc(C)cc2)csc1NC(=S)NC(=O)c1cc(OC)cc(OC)c1	2.8	3	-4	2527
20	CCc1cc[n+](C(C(=S)Nc2cccc(C)c2)=C([O-])c2ccc(C)c([N+](=O)[O-])c2)cc1	2.5	·	3	4718

no.	Mtb hypoxia inh growth	PrP 5UTR inh	Mtb hypoxia inh
11	-5	3	-7
12	3	-10	13
13	-3	-27	8
14	-2	-12	-5
15	·	32	·
16	-5	·	-9
17	16	-9	10
18	12	-1	-2
19	4	-9	1
20	13	-10	-13

# The list goes on.
no.	canonical_smiles	Sa RN4220 lethal	BJeLR lethal	ugtP null kill	Autofluor counter
21	O=c1[nH]c(=S)n(C2CC2)c(O)c1C=NCc1cccnc1	1.5	-2	2	·
22	Cc1cccc(CNC(=O)C2CCC(=O)N(CCc3cccc(F)c3)C2)n1 (stereo unspecified)	3.1	-2	6	5372
23	COC(=O)c1ccc(NC(=S)NC2CC(C)(C)NC(C)(C)C2)cc1	0.1	19	-3	2565
24	CCCc1cc(=O)[nH]c(SCC(=O)N2C(C)CCCC2C)n1 (stereo unspecified)	2.0	6	3	3890
25	O=C(CCN1CCN(c2ccccc2)CC1)N/N=C/c1ccccc1OC(F)F	·	2	·	3622
26	COc1ccc(C=NOCC(=O)N(Cc2ccc(OC)cc2)c2ccccc2C(=O)O)cc1	5.0	·	1	·
27	CN1CCc2c(sc(NC(=O)C3COc4ccccc4O3)c2C(N)=O)C1 (stereo unspecified)	3.4	-8	3	?
28	CCCCN(C(=O)C1COc2ccccc2O1)c1c(N)n(CCC)c(=O)[nH]c1=O (stereo unspecified)	0.1	·	3	3640
29	CNC(=S)N(CCc1ccc(S(N)(=O)=O)cc1)C1CC(=O)N(c2ccccc2F)C1=O (stereo unspecified)	0.3	-2	-7	4625
30	Nc1nccc(-c2cc(-c3ccc(Cl)cc3Cl)no2)n1	-7.3	5	15	4511

no.	Mtb hypoxia inh growth	PrP 5UTR inh	Mtb hypoxia inh
21	2	·	3
22	5	0	8
23	4	-3	6
24	9	-11	6
25	·	0	·
26	-3	·	2
27	0	3	5
28	-5	-22	1
29	12	-20	-2
30	15	-94	12

# Full records as entered above:
# `O=c1[nH]c(=S)n(C2CC2)c(O)c1C=NCc1cccnc1` is listed as Sa RN4220 lethal = 1.5; BJeLR lethal = -2; ugtP null kill = 2; Autofluor counter = ·; Mtb hypoxia inh growth = 2; PrP 5UTR inh = ·; Mtb hypoxia inh = 3
# `COc1ccc(C=NOCC(=O)N(Cc2ccc(OC)cc2)c2ccccc2C(=O)O)cc1` is listed as Sa RN4220 lethal = 5.0; BJeLR lethal = ·; ugtP null kill = 1; Autofluor counter = ·; Mtb hypoxia inh growth = -3; PrP 5UTR inh = ·; Mtb hypoxia inh = 2

# Additional entries follow.
no.	canonical_smiles	Sa RN4220 lethal	BJeLR lethal	ugtP null kill	Autofluor counter
31	Cn1nnnc1SCC(=O)NC(=O)c1cccc([N+](=O)[O-])c1	3.1	1	4	4045
32	Fc1ccccc1C(c1nnnn1Cc1ccc2c(c1)OCO2)N1CCN(Cc2ccccc2)CC1 (stereo unspecified)	-0.2	-5	4	3962
33	CCOC(=O)c1sc(N)c(C(=O)Nc2ccccc2OC)c1C	0.8	10	-12	4268
34	CSc1nc2ccc(NC(=O)c3cc4ccccc4o3)cc2s1	6.8	7	-1	2648
35	Cc1ccc(N2C(=O)C(NC(=O)c3ccccc3F)(C(F)(F)F)C3=C2CC(C)(C)CC3=O)cc1 (stereo unspecified)	0.6	-14	0	7736
36	CCOC(=O)N1CCN(S(=O)(=O)c2cc(OCC)ccc2OCC)CC1	-1.3	-7	6	2345
37	CCOc1ccc(C(C(=O)NCC2CCCO2)N(C(=O)c2snc(C(N)=O)c2N)c2ccc(F)cc2)cc1 (stereo unspecified)	·	-2	·	3729
38	Cc1ccc(NC(=O)CN2C(=O)S/C(=C\c3ccc(-c4cccc(C(=O)O)c4C)o3)C2=O)cc1C	4.6	·	11	4681
39	Cc1cc(NC(=O)c2ccc(Cl)c(S(=O)(=O)N3CCCCC3)c2)no1	4.1	14	11	5329
40	CCOC(=O)C1=CN(Cc2cccc(-c3ccc(F)cc3)c2)S(=O)(=O)N(C)C1C (stereo unspecified)	-2.5	·	5	3888

no.	Mtb hypoxia inh growth	PrP 5UTR inh	Mtb hypoxia inh
31	2	-1	13
32	·	-12	·
33	2	-14	-4
34	2	-98	1
35	-18	-11	-6
36	·	-23	·
37	·	-19	·
38	0	-27	7
39	3	-11	3
40	-3	33	-5

# (more compounds)
no.	canonical_smiles	Sa RN4220 lethal	BJeLR lethal	ugtP null kill	Autofluor counter
41	COc1ccc(OC)c(NC(=O)NCCc2c[nH]c3ccccc23)c1	1.0	0	-1	4356
42	CC(C)OCCCNS(=O)(=O)c1ccc2ccccc2c1	6.5	-2	-4	9738
43	COc1ccc(C(=O)CSc2nnc(CNC(=O)c3ccccc3)n2C)cc1	1.4	1	10	4305
44	CCC(C(=O)N1CCCCCC1)n1nc(C)n2c(cc3occc32)c1=O (stereo unspecified)	3.4	1	2	·
45	Cc1nnc(NC(=O)CSc2ccc3nnc(-c4ccccn4)n3n2)s1	-0.6	0	4	2518
46	Cc1ccc(Cc2nc3ccccc3[nH]2)cc1	2.5	-3	8	4419
47	CN(C(=O)COC(=O)/C=C/c1cccc([N+](=O)[O-])c1)C1CCS(=O)(=O)C1 (stereo unspecified)	0.2	-19	2	4901
48	COc1ccc(C(=O)NC2CCN(C(=S)Nc3ccc(C)c(C)c3)CC2)cc1	0.2	4	1	2588
49	CCOc1ccc(C(=O)Nc2ccc(-c3cc4ccccc4oc3=O)c(C)c2)cc1[N+](=O)[O-]	8.7	2	4	2041
50	CC(=O)Nc1ccc(Oc2cc(N)cc([N+](=O)[O-])c2)cc1	3.2	-4	1	2179

no.	Mtb hypoxia inh growth	PrP 5UTR inh	Mtb hypoxia inh
41	4	-13	-2
42	8	-38	10
43	3	-11	4
44	9	-24	2
45	4	-8	9
46	9	-17	15
47	9	6	1
48	2	-2	4
49	2	6	3
50	3	-28	14

# The results go on.
no.	canonical_smiles	Sa RN4220 lethal	BJeLR lethal	ugtP null kill	Autofluor counter
51	Cc1ccc(C(C)NC(=O)c2cc3ccccc3oc2=O)cc1C (stereo unspecified)	4.1	-5	0	3020
52	Cc1nc(N2CCN(C)CC2)c2sc(=S)n(-c3ccccc3)c2n1	-0.1	-4	-1	4364
53	Cc1ccc(C)c(C(=O)CSc2n[nH]c(C)n2)c1	4.5	-1	2	9372
54	Cc1ccc(NC(=O)C(=O)NCCOc2ccc(Cl)cc2)c(C)c1	0.3	1	5	2081
55	CCOC(=O)C1(C)C=C(Nc2ccc(OC)cc2)C(=O)N1c1ccc(OC)cc1 (stereo unspecified)	5.9	5	7	2921
56	C=CCC(C#Cc1ccccc1)[N+](C)(C)CC=C (stereo unspecified)	2.2	6	13	2172
57	Cc1nc2ccccc2c(=O)n1NC(=O)C=Cc1ccccc1Cl	-1.2	·	-18	·
58	S=c1nc(-c2ccc(Br)cc2)oc2c1CCCC2	·	2	·	4137

no.	Mtb hypoxia inh growth	PrP 5UTR inh	Mtb hypoxia inh
51	4	-23	25
52	·	9	·
53	9	-23	3
54	5	-8	10
55	7	-5	8
56	·	-16	·
57	1	·	-7
58	·	-74	·

# Filtered by structure, those above containing an aryl thioether with sulfur outside any ring.
no.	canonical_smiles	Sa RN4220 lethal	BJeLR lethal	ugtP null kill	Autofluor counter
5	CCc1cc2cc3c(cc2nc1SCC(=O)OC(C)C)OCO3	6.2	1	59	3520
13	Cc1ccn2c(=O)nc(SCC(=O)OCc3ccccc3)nc2c1	4.5	-7	-5	?
24	CCCc1cc(=O)[nH]c(SCC(=O)N2C(C)CCCC2C)n1 (stereo unspecified)	2.0	6	3	3890
31	Cn1nnnc1SCC(=O)NC(=O)c1cccc([N+](=O)[O-])c1	3.1	1	4	4045
34	CSc1nc2ccc(NC(=O)c3cc4ccccc4o3)cc2s1	6.8	7	-1	2648
43	COc1ccc(C(=O)CSc2nnc(CNC(=O)c3ccccc3)n2C)cc1	1.4	1	10	4305
45	Cc1nnc(NC(=O)CSc2ccc3nnc(-c4ccccn4)n3n2)s1	-0.6	0	4	2518
53	Cc1ccc(C)c(C(=O)CSc2n[nH]c(C)n2)c1	4.5	-1	2	9372

no.	Mtb hypoxia inh growth	PrP 5UTR inh	Mtb hypoxia inh
5	-3	-16	9
13	-3	-27	8
24	9	-11	6
31	2	-1	13
34	2	-98	1
43	3	-11	4
45	4	-8	9
53	9	-23	3

# Compound activity as filed in PubChem BioAssay.
